KCNQ2 block: KCNQ2 potassium channel inhibitors, primary screen, cell-based, CHO-K1, FluxOR thallium flux, B-score (AID 2156); Potassium voltage-gated channel subfamily KQT member 2 (Rattus norvegicus), O88943; 20 min; stronger effect = lower value; only compounds with negative scores are shown here; some inactives read as strong as hits; B-score at 10 µM; actives 1.1% (n = 310,000);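 active means fluorescence ratio B-score at most minus 3 library SDs, with starting brightness B-score within 2 library SDs, cut at about -5.5 in these data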
Target sequence (O88943 whole entry, looked up): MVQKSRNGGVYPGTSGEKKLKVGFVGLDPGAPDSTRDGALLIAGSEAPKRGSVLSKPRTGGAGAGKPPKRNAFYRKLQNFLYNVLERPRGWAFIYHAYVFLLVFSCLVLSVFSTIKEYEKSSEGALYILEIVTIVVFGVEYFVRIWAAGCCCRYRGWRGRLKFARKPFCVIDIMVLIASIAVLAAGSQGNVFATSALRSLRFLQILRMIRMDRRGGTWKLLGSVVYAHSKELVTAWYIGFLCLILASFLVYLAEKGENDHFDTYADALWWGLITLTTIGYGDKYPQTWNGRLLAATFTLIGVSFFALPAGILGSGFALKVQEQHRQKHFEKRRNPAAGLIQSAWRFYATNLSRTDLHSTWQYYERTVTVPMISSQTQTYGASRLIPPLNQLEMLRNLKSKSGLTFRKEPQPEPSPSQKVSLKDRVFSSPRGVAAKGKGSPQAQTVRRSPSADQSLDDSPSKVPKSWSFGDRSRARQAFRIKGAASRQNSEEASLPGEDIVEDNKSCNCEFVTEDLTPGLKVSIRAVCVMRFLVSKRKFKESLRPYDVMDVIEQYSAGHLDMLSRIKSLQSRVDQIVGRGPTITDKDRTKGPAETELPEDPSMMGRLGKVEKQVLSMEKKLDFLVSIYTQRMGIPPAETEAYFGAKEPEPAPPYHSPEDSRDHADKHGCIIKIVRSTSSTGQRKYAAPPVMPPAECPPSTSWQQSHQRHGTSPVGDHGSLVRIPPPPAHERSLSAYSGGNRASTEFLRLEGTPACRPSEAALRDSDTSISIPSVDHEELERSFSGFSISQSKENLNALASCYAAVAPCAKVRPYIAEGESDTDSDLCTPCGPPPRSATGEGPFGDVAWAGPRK
KCNQ2 block baseline: second read-out of KCNQ2 block, no call of its own (marks repeat the call); B-score; measured here: initial fluorescence intensity artifact check;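 brightness before thallium and not channel activity; 0 = typical well and far values either way flag optical interference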
* hit, by the source's call; i = inactive. A portion of the library, so the mix of outcomes need not match the whole.

SMILES | KCNQ2 block | KCNQ2 block baseline
O=C(NC(=S)NN1CCCCC1c1cccnc1)c1ccc(Cl)cc1Cl (stereo not drawn) | i | -0.01
CC(C)(C)N1C(=O)c2ccc(C(=O)Nc3ccc(-c4nc5ccccc5[nH]4)cc3)cc2C1=O | i | 1.84
c1cc(CNc2ccc3c(c2)OCO3)ccn1 | i | 1.92
CC(=O)c1c(C)[nH]c(C(=O)OCC(=O)Nc2cc(C(F)(F)F)ccc2N2CCOCC2)c1C | i | -1.98
Cc1ccc(S(=O)(=O)N2CCN=C2SCc2c(F)cccc2Cl)cc1 | i | -1.7
O=C(/C=C/c1ccco1)NC(=S)Nc1ccccc1N1CCCC1 | i | 0.7
O=C(CN1CCN(c2ccc(F)cc2)CC1)N1CCC(Cc2ccccc2)CC1 | i | 0.57
Cc1ccc(NC2c3ccccc3C(=O)N2CCN2CCOCC2)cc1 (stereo not drawn) | i | 0.33
CCn1cc(Cl)c(C(=O)Nc2cccc(C(F)(F)F)c2)n1 | i | 1
CCOC(=O)c1ccc(Oc2cn[nH]c2-c2ccc(O)cc2O)cc1 | i | -1.88
O=C(N/N=C/c1oc(O)c2ccccc12)c1ccccc1 | i | 0.68
CC(=O)Nc1ccc(NC2CCCCC2NS(=O)(=O)c2ccc(Cl)cc2)cc1 (stereo not drawn) | i | 0.46
O=C(c1nc2n(n1)C(c1ccc(Cl)cc1)C=C(c1ccccc1)N2)N1CCOCC1 (stereo not drawn) | i | 7.89
Cc1ccc(Cl)cc1NC(=O)CNCC(c1ccccc1)N(C)C (stereo not drawn) | i | 1.54
C/C(=N\NC(=O)c1ccccc1)c1ccc(N2CCOCC2)cc1 | i | 1.07
Cc1cc(C(F)(F)F)c(C#N)c(SCC(=O)Nc2nc3cc(Br)ccc3s2)n1 | i | -0.54
Cc1cccc(NC(=O)NNC(=O)c2sccc2-n2cccc2)c1 | i | 0.38
CCN1CCN(C(=O)Nc2cccc(C(F)(F)F)c2)CC1 | i | 0.5
COc1ccc(C(NC(=O)C(C)(C)C)NC(=O)C(C)(C)C)cc1 | i | 0.47
Nc1nc(SCC(=O)Nc2ccc3c(c2)OCO3)n[nH]1 | i | -0.69
CSc1cccc(NC(=O)c2ccccn2)c1 | i | -0.65
CC(C)(C)N=C1NN=C(c2ccc(Cl)cc2)CS1 | i | 0.06
COc1ccc(C(=O)N2CCN(c3cccc(Cl)c3)CC2)cc1 | i | -0.05
C=CCNC(=O)/C(=C/c1ccco1)NC(=O)c1ccc(Br)o1 | i | -0.01
Cc1ccccc1Nc1nc(Nc2ccccc2C)nc(SC2=NCCS2)n1 | i | -0.15

Part of the list above in another layout.
CCOC(=O)c1ccc(Oc2cn[nH]c2-c2ccc(O)cc2O)cc1
  KCNQ2 block: i; KCNQ2 block baseline: -1.88

CC(C)(C)N1C(=O)c2ccc(C(=O)Nc3ccc(-c4nc5ccccc5[nH]4)cc3)cc2C1=O
  KCNQ2 block: i; KCNQ2 block baseline: 1.84

COc1ccc(C(NC(=O)C(C)(C)C)NC(=O)C(C)(C)C)cc1
  KCNQ2 block: i; KCNQ2 block baseline: 0.47

Cc1ccccc1Nc1nc(Nc2ccccc2C)nc(SC2=NCCS2)n1
  KCNQ2 block: i; KCNQ2 block baseline: -0.15

Further results follow:
SMILES | KCNQ2 block | KCNQ2 block baseline
Cc1ccc(S(=O)(=O)Nc2cccc(-c3ccc(N4CCCCCC4)nn3)c2)cc1 | i | 0.22
CC1(CCc2ccccc2)NC(=O)N(CC(=O)Nc2ccccc2)C1=O (stereo not drawn) | i | -0.09
CCn1cnc2cc(NCc3nc4ccccc4n3C)ccc21 | i | 2.49
COCCN(C(=O)COC(=O)C1COc2ccccc2O1)c1c(N)n(Cc2ccccc2)c(=O)[nH]c1=O (stereo not drawn) | i | -1.29
COC(=O)CCN(C(=O)c1ccc2c(c1)OCO2)c1ccccn1 | i | -0.14
O=C(Nc1ccc2[nH]ncc2c1)c1ccc(F)cc1 | i | -0.52
NC(=O)c1ccc(NC(=O)CSc2nncn2-c2ccccc2)cc1 | i | -1.04
COc1ccccc1N1CCN(C(=O)CCc2c[nH]c3ccccc23)CC1 | i | -0.57
CCCCC(=O)Nc1nnc(C2=COCCO2)o1 | i | 0.85
O=C1c2ccccc2NC(c2cccc(Cl)c2)N1N=C1CCCCCC1 (stereo not drawn) | i | -0.21
CCOCCCNC(=O)c1ccc(-n2c(=S)[nH]c3ccccc3c2=O)cc1 | i | 0.82
O=[N+]([O-])c1ccccc1S(=O)(=O)NCc1cccnc1 | i | -0.58
COc1ccc(NS(=O)(=O)c2cc(NC(=O)c3ccncc3)ccc2N2CCOCC2)cc1 | i | 1.28
Cc1cc(C)n(C)c(=O)c1C#N | i | 1.36
O=C(OCn1nnc2ccccc2c1=O)c1ccc2ccccc2n1 | i | 0.11
C=CCN1C(=O)C(Cc2cccc(Cl)c2)S/C1=N/N=C/c1ccco1 (stereo not drawn) | i | -3.15
CC1CCCCC1NC(=O)NC(=O)CCl (stereo not drawn) | i | 0.02
Clc1ccccc1N1CCN(Cc2c[nH]c3ccccc23)CC1 | i | 0.79
COc1ccccc1N(C(=O)c1snc(C(N)=O)c1N)C(C(=O)NC1CCCCC1)c1cccc(OC)c1OC (stereo not drawn) | i | 2.02
COc1cc(NC(=O)c2ccccc2Cl)c2ncccc2c1 | i | -1.44
O=c1[nH][nH]c(-c2ccccc2)c1C=Nc1ccc(Cl)cc1 | i | 0.07
N/C(COc1ccc(Cl)cc1Cl)=N\O | i | 1.04
COC(=O)c1cc(C(=O)OC)cc(N2C(=O)CC(NNC(=O)c3ccccc3Br)C2=O)c1 (stereo not drawn) | i | 2.08
Cc1ccc2c(CN3CCN(Cc4ccc5c(c4)OCO5)CC3)cc(=O)oc2c1C | i | -0.15
CC(C)CN(C(=O)COC(=O)c1ccc2c(c1)OCO2)c1c(N)n(Cc2ccccc2)c(=O)[nH]c1=O | i | 0.65

The results go on.
SMILES | KCNQ2 block | KCNQ2 block baseline
O=C(Nc1cccc2c1CCCC2)c1ccc(Cl)c([N+](=O)[O-])c1 | i | -1.2
O=S(=O)(NC(=NCc1ccccc1)c1ccc(F)cc1)c1ccc(Cl)cc1 | i | -0.11
O=c1[nH]c2cc(S(=O)(=O)CCO)ccc2o1 | i | 1.37
COc1ccccc1C(C#N)N1N=C(C)CC1(C)C (stereo not drawn) | i | 0.54
Cc1cc(C)c2oc(=O)cc(CN3CCN(Cc4ccc5c(c4)OCO5)CC3)c2c1 | i | -0.81
CCOc1ccc2ncc(C(=O)c3ccc(OC)cc3)c(N3CCN(CC)CC3)c2c1 | i | -0.6
CC(C)C(C(=O)N1CCOCC1)N1C(=O)c2ccccc2C1=O (stereo not drawn) | i | 0.13
CN1/C(=C\C(=O)Nc2cccnc2)c2ccccc2CC1(C)C | i | 0.02
Cn1nnnc1SCC(=O)N1c2ccccc2CCc2ccccc21 | i | 1.12
CN(C)C(CNC(=O)c1ccco1)c1cccs1 (stereo not drawn) | i | 0.48
Oc1[nH]c2ccccc2c1N=Nc1cccc(Cl)c1 | i | 0.47
CCOc1ccccc1N1CSC2=C(C#N)C(c3c(OC)ccc4ccccc34)CC(=O)N2C1 (stereo not drawn) | i | -1.08
CCOc1ccc(S(=O)(=O)N2CCOCC2)cc1NC(=O)CSC(=S)N1CCCC1 | i | 0.21
COC(=O)c1cc(S(=O)(=O)N2CCCC(C)C2)cn1C (stereo not drawn) | i | -2.08
Cn1c(=O)[nH]c(=O)c2c1nc(Sc1nc3ccccc3s1)n2Cc1ccccc1 | i | 0.65
CCOc1ccccc1Nc1nc2ccccc2n2cnnc12 | i | -0.2
O=C(Nc1c(C(=O)C2CC2)oc2ccccc12)c1ccc(Cl)cc1 | i | 0.14
COc1cc2c(cc1OC)C(c1ccccc1F)OC(=O)C2 (stereo not drawn) | i | 2.4
O=C(c1ncc[nH]1)c1ccccc1Cl | i | -0.55
CCOC(=O)C1(CCCc2ccccc2)CCN(C(=O)c2cc(C)nn2CC)CC1 | i | -0.35
COc1ccc(/C=C/C(=O)Nc2c(C)nn(C)c2C)cc1COc1ccc(Br)cc1 | i | -0.48
Cn1c(O)c(N=NC(=O)c2cc(-c3cccs3)nc3ccccc23)c2ccccc21 | i | 0.54
O=C(Oc1cccc2cccnc12)c1cccc([N+](=O)[O-])c1 | i | 1.41
Cc1ccc(C)c(N2CCN(S(=O)(=O)c3ccc(-c4cc(C)no4)s3)CC2)c1 | i | 1.04
CCc1ccc(CN(C)Cc2nc(COc3ccccc3)no2)nc1 | i | -1.67

Continued.
SMILES | KCNQ2 block | KCNQ2 block baseline
C=CCN1C(=O)[C@@H]2Cc3c([nH]c4ccccc34)C(c3ccc(O)cc3)N2C1=S (stereo partly drawn) | i | 1.7
COc1cc([C@@H]2C[C@H]3CN(c4ccccc4)C(=O)[C@]34CCCN24)cc(OC)c1OC | i | -0.61
c1ccc(C(c2ccccc2)N2CCN(Cc3nnnn3C3CCCCC3)CC2)cc1 | i | -2.32
COc1cc2cc(C(c3nnnn3C3CCCC3)N(C)C3CCCCC3)c(=O)[nH]c2cc1OC (stereo not drawn) | -8.99* | -1.22*
COc1ccc(Cl)c(N2CCN(CCCNC(=O)Nc3ccc(C)cc3)CC2)c1 | i | 1.15
CCN1C2=C(C(=O)CCC2)C(c2ccc(O)cc2)C2=C1CCCC2=O | i | 0.89
O=C1C2C3CCC(C3)C2C(=O)N1c1ccc2ccccc2c1 (stereo not drawn) | i | -0.28
CCCC(C(=O)NC(C)(C)C)N(CC1CCCO1)C(=O)c1snc(C(N)=O)c1N (stereo not drawn) | i | -0.68
O=C(O)CCSc1nnc(COc2cccc3cccnc23)n1-c1ccccc1 | i | 0.18
S=C(NCCc1ccccc1)N/N=C/c1ccccc1Cl | i | -2.44
CCN(CC)CCCNC(=O)C1CCN(C(=O)c2cc3sccc3n2Cc2ccc(F)cc2)CC1 | i | 2.57
O=C(CSc1nnnn1-c1ccccc1)Nc1ncc(Cc2ccccc2Cl)s1 | i | 1.59
CCC(CC)C(=O)Nc1cccc(/C(C)=N/NC(=O)c2ccccc2Cl)c1 | i | 0.35
CCOc1ccc(CNc2nc3ccccc3n2CCN2CCOCC2)cc1 | i | 0.06
CC(=O)n1nc(-c2cccnc2)nc1N | i | -0.82
CCN(CC)S(=O)(=O)N1CCC(C(=O)NC2CCCc3ccccc32)CC1 (stereo not drawn) | i | 1.79
O=C1N[C@H](Cc2ccccc2)CO1 | i | 1.44
CCn1c(=O)c([N+](=O)[O-])c(NCc2ccc3c(c2)OCO3)c2ccccc21 | i | -1.37
COc1ccc(C(=O)Nc2ccccc2)cc1NC(=O)c1ccc([N+](=O)[O-])cc1 | i | 2.4
CCCOc1ccc(N2CC(C(=O)NC3=NCCS3)CC2=O)cc1 (stereo not drawn) | i | -1.37
CCn1nc(C)cc1C(=O)Sc1ccc(Cl)cc1Cl | i | 2.2
COc1ccc(CCNC(=O)[C@H](C)N2C(=O)N3CCc4c([nH]c5ccccc45)[C@@]3(C)C2=O)cc1OC | i | 0.35
FC(F)(F)c1cc(-c2cccs2)nc2nc(N3CCOCC3)sc12 | i | 0.15
COc1ccc(Nc2nc(Cl)nc(N3CCN(c4ccc(OC)cc4)CC3)n2)cc1 | i | -1.09
COc1ccc(CC(NC(C)=O)C(=O)NC2CCN(C(=O)c3cccc(Cl)c3)CC2)cc1OC (stereo not drawn) | i | -0.59

The list goes on:
SMILES | KCNQ2 block | KCNQ2 block baseline
COc1ccc(OC)c(S(=O)(=O)n2ccnc2C)c1 | i | -0.89
Cc1ccc(NC(=O)[C@H](NC(=O)[C@@H]2Cc3ccccc3CN2)c2ccccc2)c(C)c1 | i | 3.29
CCCSc1nnc(N2C(=O)C(O)=C(C(=O)c3ccco3)C2c2ccccc2F)s1 (stereo not drawn) | i | 3.68
O=C(O)c1cc(-c2cccc3ccccc23)nc2ccccc12 | i | -0.89
O=C(CCN1CCOCC1)NNC(=S)NC(=O)c1ccc(Br)cc1 | i | -2.37
COc1cc(OC)nc(NC(=O)COC(=O)C2CCCCC2)n1 | i | -1.1
CSc1cccc(NC(=S)N(CCCN2CCC(C)CC2)Cc2cccs2)c1 | i | -0.38
C=CCN(CC=C)Cc1cc(=O)n2c(-c3ccccc3)csc2n1 | i | 1.19
O=C1Nc2cccnc2Sc2ccccc21 | i | 2.35
CC(C)Oc1ccc(C(=O)NC2CCCCC2)cc1 | i | 1.45
CC(=O)/C(N=Nc1cc2c(c([N+](=O)[O-])c1C)C(C)(C)CC2(C)C)=C(\C)O | i | 1.07
CCN(CC)C(=O)Cn1cc(C(=O)C(=O)N2CCN(c3ccc([N+](=O)[O-])cc3)CC2)c2ccccc21 | i | 0.62
CC(C)Cc1ccc(CN2CCCC(NC(=O)c3ccoc3)C2)cc1 (stereo not drawn) | i | 0.6
O=C1c2cc(O)c(O)cc2S(=O)(=O)C1c1ccccc1 (stereo not drawn) | i | -9.88
NNC(=O)c1sc(-c2ccc(Cl)cc2)cc1N | i | 0.4
COc1ccc(-c2noc(CCC(=O)Nc3cc(Cl)c(OC)cc3OC)n2)cc1 | i | 0.32
CSCCNC(=O)c1ccc2nc(Cc3ccccc3F)oc2c1 | i | -1.08
O=C(O)CCCn1cc(NC(=O)COc2ccccc2[N+](=O)[O-])cn1 | i | 0.04
O=C1C2CCCN2C(c2ccccc2)N1c1ccc(Cl)cc1 (stereo not drawn) | i | -0.52
N#CCCSCc1ccc(C(=O)O)o1 | i | -0.01
CCOC(=O)c1c(C)[nH]c(C)c1C(=O)COC(=O)c1cccc(C)c1O | i | 0.28
Cc1csc(SCC(=O)N2CCCC2)n1 | i | 0.67

Bioassay records (PubChem)
